Vaccinia inh = blocks a specific stage of Vaccinia orthopoxvirus infection, primary screen, cell-based, single point; activity change (mCherry), % (test concentration not listed); 89,000 tested, 0.01% active; Vaccinia-infected cells, mCherry/Venus stage reporter fluorescence; hits give low values; some inactives read as strong as hits;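 active = mCherry past -33% and 40 or more points under the early reporter, replicates agreeing; inconclusive = past -33% without that gap or agreement; tested in A549 cells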;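 also: scaled between vehicle wells and reference inhibitor wells; 23 nL library stock went into each well; one replicate is shown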
Vaccinia inh Venus = recorded beside Vaccinia inh, whose call it bears; activity change (Venus), %; measured here: Venus reporter, other viral stage;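 negative = less Venus signal; first of two replicates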
Numbers without * were called inactive; ? = inconclusive; . = no result given; & = joins results of further samples. The list is partial; rates above refer to the full screens.

The line under a structure holds: Vaccinia inh, Vaccinia inh Venus
[1] COc1ccc(-c2ccc([C@H]3[C@@H](CO)N4CCCCN(C(=O)NC(C)C)C[C@@H]34)cc2)cc1
  9.6, 8.1
[2] C[C@@H]1CCCCO[C@H](CN(C)C(=O)c2ccncc2)[C@H](C)CN([C@@H](C)CO)C(=O)c2cc(NS(C)(=O)=O)ccc2O1
  8.5, 6.6
[3] C[C@@H]1CN([C@@H](C)CO)C(=O)c2c(c3ccccc3n2C)-c2ccccc2CO[C@@H]1CN(C)CC1CC1
  -29.9, -33.6
[4] CCO[C@H]1OC(C(=O)N2CCOCC2)=C[C@@H](C2CCCCC2)[C@@H]1CCCO
  12.1, 8.3
[5] COc1ccc(CN(C)C[C@@H]2Oc3ccc(NS(=O)(=O)c4cccs4)cc3CC(=O)N([C@H](C)CO)C[C@H]2C)cc1
  -0.6, 0.4
[6] CN(C)CCCNC(=O)C[C@@H]1CC[C@H]2[C@@H](COC[C@H](O)CN2CC2CCCC2)O1
  3.0, 0.8
[7] CO[C@@H]1CN(C)C(=O)c2ccc(NC(=O)Nc3ccccc3)cc2OC[C@H](C)NC[C@H]1C
  -6.1, -7.4
[8] O=C(Nc1ccccc1)C1=C[C@H](c2ccccc2)C[C@H](OCCCCO)O1
  12.2, 23.0
[9] CCC(=O)N1[C@@H]2Cn3c(ccc(-c4cccnc4)c3=O)[C@H]1[C@@H](C(=O)NC1CCC1)[C@@H]2CO
  12.6, 15.1
[10] N#C[C@H]1[C@@H](c2ccc(-c3ccccc3F)cc2)[C@H](CO)N1C(=O)C1CC1
  -7.1, 6.7
[11] C[C@H](CO)N1C[C@H](C)[C@H](CN(C)C(=O)Nc2cccc3ccccc23)Oc2ccc(NC(=O)CCN3CCOCC3)cc2CC1=O
  15.4, 12.9
[12] COc1ccc(NC(=O)Nc2ccc3c(c2)C(=O)N([C@H](C)CO)C[C@H](C)[C@H](CN(C)S(=O)(=O)c2cccs2)OCCCC[C@@H](C)O3)cc1
  4.4, 4.3
[13] CO[C@@H]1CN(C)C(=O)c2ccc(NC(=O)C3CC3)cc2OC[C@H](C)N(Cc2cccnc2)C[C@@H]1C
  13.1, 7.6
[14] CCCNC(=O)Nc1ccc2c(c1)OC[C@H](C)N(CC1CCCC1)C[C@H](C)[C@H](OC)CN(C)C2=O
  7.8, 1.8
[15] C[C@@H](NC(=O)C[C@@H]1C=C[C@H](NC(=O)C2CCOCC2)[C@@H](CO)O1)c1ccccc1
  5.6, 2.0
[16] CCC(=O)NC[C@@H]1[C@H](c2ccc(-c3cccc(F)c3)cc2)[C@H](CO)N1C(=O)CC
  -2.9, -1.0
[17] CCCNC(=O)N(C)C[C@H]1Oc2ncc(-c3ccccc3)cc2C(=O)N([C@@H](C)CO)C[C@@H]1C
  6.1, 2.8
[18] C[C@H](CO)N1C[C@H](C)[C@@H](CN(C)Cc2ccncc2)OCc2cnnn2CCCC1=O
  8.7&15.2, 23.7&12.6
[19] C[C@@H]1CN([C@H](C)CO)C(=O)CCCn2nncc2CO[C@@H]1CN(C)C(=O)Nc1ccc(C(F)(F)F)cc1
  11.8, 8.0
[20] C[C@@H]1CN([C@@H](C)CO)S(=O)(=O)c2ccc(C#Cc3ccccn3)cc2O[C@@H]1CN(C)CC1CC1
  4.9, 0.6
[21] CO[C@H]1CN(C)C(=O)c2ccc(NS(C)(=O)=O)cc2OC[C@H](C)N(Cc2cccnc2)C[C@@H]1C
  8.9, 14.9
[22] COCC(=O)N(C)C[C@@H]1Oc2ncc(-c3ccccc3OC)cc2C(=O)N([C@H](C)CO)C[C@@H]1C
  7.5, 6.8
[23] CS(=O)(=O)Nc1ccc2c(c1)[C@H]1C[C@@H](CC(=O)O)O[C@@H](CO)[C@H]1O2
  5.1, 5.0
[24] O=C(C[C@H]1C[C@H]2c3cc(NC(=O)C4CCC4)ccc3O[C@H]2[C@@H](CO)O1)NCc1ccccc1F
  3.1, 2.9
[25] O=C(NC1CCCC1)N1CC(=O)N2[C@H](CO)[C@@H](c3ccc(-c4cccnc4)cc3)[C@@H]2C1
  9.6, -0.4
[26] C[C@@H]1CN([C@@H](C)CO)C(=O)Cc2cc(NC(=O)NC3CCCCC3)ccc2O[C@H]1CN(C)S(C)(=O)=O
  12.9, 11.0
[27] COc1ccc(NC(=O)N(C)C[C@H]2OCCCC[C@@H](C)Oc3ccc(NC(=O)C4CCCCC4)cc3C(=O)N([C@@H](C)CO)C[C@H]2C)cc1
  -6.0, -2.6
[28] COc1ccccc1C#Cc1ccc2c(c1)[C@H]1[C@H](CCN1C(=O)c1ccccc1)[C@H](CO)N2
  -11.8, -6.9
[29] C[C@H](CO)N1C[C@H](C)[C@H](CN(C)C(=O)c2ccc3c(c2)OCO3)Oc2ncc(C#Cc3ccccc3F)cc2C1=O
  -12.9, -13.7
[30] COc1ccc(NC(=O)N(C)C[C@H]2OCCCC[C@@H](C)Oc3ccc(NS(C)(=O)=O)cc3C(=O)N([C@@H](C)CO)C[C@H]2C)cc1
  12.3, 4.2

Other compounds:
cpd	smiles	Vaccinia inh	Vaccinia inh Venus
31	C[C@@H]1CCCCO[C@@H](CN(C)S(=O)(=O)c2cccs2)[C@@H](C)CN([C@@H](C)CO)C(=O)c2cc(NS(=O)(=O)c3ccc(F)cc3)ccc2O1	9.1	4.7
32	CC(C)NC(=O)N(C)C[C@H]1OCCCC[C@@H](C)Oc2ccc(NC(=O)CCCN(C)C)cc2C(=O)N([C@@H](C)CO)C[C@@H]1C	19.1	7.0
33	C[C@H]1CN([C@@H](C)CO)C(=O)c2c(c3ccccc3n2C)-c2ccccc2CO[C@@H]1CN(C)Cc1ccc(O)cc1	?	.
34	COc1ccc(NC(=O)N(C)C[C@H]2Oc3ncc(C4=CCCC4)cc3C(=O)N([C@H](C)CO)C[C@@H]2C)cc1	-4.2	-11.8
35	Cc1ccccc1-c1ccc([C@@H]2[C@@H](CO)N3C(=O)CN(C(=O)Nc4ccc(F)cc4)C[C@@H]23)cc1	-31.3	-31.0
36	O=C(C[C@H]1CC[C@@H]2[C@H](COC[C@H](O)CN2C(=O)c2ccccc2F)O1)NCc1ccc(-c2ccccc2)cc1	-31.3	-29.2
37	COc1ccccc1C#Cc1ccc2c(c1)[C@@H]1[C@@H](CCN1S(=O)(=O)c1cccc(C)c1)[C@H](CO)N2	-30.8	-6.7
38	CNC[C@@H]1Oc2cc(-c3cccc(C(=O)N(C)C)c3)ccc2S(=O)(=O)N([C@H](C)CO)C[C@H]1C	9.9	7.1
39	C[C@H]1CN([C@@H](C)CO)C(=O)c2cc(-c3cccc(C#N)c3)cnc2O[C@@H]1CN(C)C(=O)C1CCOCC1	13.3	6.6
40	COc1ccccc1C#Cc1ccc2c(c1)[C@H]1[C@H](CCN1C(=O)c1ccc(F)cc1)[C@H](CO)N2	-15.2	-5.7
41	C[C@@H]1CN([C@@H](C)CO)C(=O)c2cccc(NS(=O)(=O)c3ccc(Cl)cc3)c2O[C@H]1CN(C)C	21.6	0.7
42	CN(C)CC#Cc1ccc([C@H]2[C@@H](CO)N3C(=O)CN(C(=O)c4cccnc4)C[C@@H]23)cc1	4.0	-1.9
43	CCC(=O)N(C)C[C@@H]1[C@H](c2ccc(-c3cccnc3)cc2)[C@H](CO)N1C(C)=O	12.7	15.6
44	Cc1noc(C)c1S(=O)(=O)N(C)C[C@H]1OCc2ccccc2-c2ccccc2C(=O)N([C@H](C)CO)C[C@H]1C	26.1	7.3
45	CNC[C@H]1Oc2cc(C#CCN(C)C)ccc2S(=O)(=O)N([C@@H](C)CO)C[C@H]1C	7.2	10.5
46	COc1cccc(-c2ccc(C3[C@@H]4CN(C(=O)C5CC5)C[C@H]3N4)cc2)c1 (some centres undefined)	?	10.9
47	C[C@@H]1CCCCO[C@@H](CN(C)C(=O)Nc2ccc(F)cc2)[C@@H](C)CN([C@@H](C)CO)C(=O)c2cc(NC(=O)Nc3cccc4ccccc34)ccc2O1	20.5	6.8
48	CCC(=O)N(C)C[C@H]1Oc2cc(-c3cccc(C#N)c3)ccc2S(=O)(=O)N([C@H](C)CO)C[C@H]1C	24.3	3.8
49	O=C(C[C@H]1C=C[C@H](NC(=O)c2ccncc2)[C@H](CO)O1)NCCc1ccncc1	12.0	-1.0
50	COCC(=O)N1CCCCN2[C@H](CO)[C@@H](c3ccc(-c4ccc(F)cc4)cc3)[C@H]2C1	4.8	0.3
51	COCCNC(=O)C[C@@H]1CC[C@H]2[C@H](COc3ccc(NC(=O)c4cnccn4)cc3C(=O)N2C)O1	5.0	4.8
52	Cc1ccc(S(=O)(=O)N[C@H]2CC[C@@H](CCn3cc(-c4cccc(F)c4)nn3)O[C@@H]2CO)cc1	?	.
53	OC[C@H]1[C@@H](c2ccccc2)C2(CN(CCC(F)(F)F)C2)N1Cc1ccncc1	7.3	11.8
54	COc1ccc(CNC(=O)C[C@H]2CC[C@H](NS(=O)(=O)c3cccc(OC)c3)[C@@H](CO)O2)cc1	-6.9	-8.9
55	C[C@H](CO)N1C[C@H](C)[C@H](CN(C)S(=O)(=O)c2ccc(F)cc2)Oc2ccc(NC(=O)Nc3ccc4c(c3)OCO4)cc2C1=O	-28.2	-18.7
56	O=C(C[C@@H]1CC[C@@H]2[C@H](COC[C@@H](O)CN2Cc2nccs2)O1)NCc1ccc(Cl)cc1	-6.9	-2.6
57	COc1ccc(CNC(=O)N(C)C[C@@H]2OCc3ccccc3-c3c(n(C)c4ccccc34)C(=O)N([C@H](C)CO)C[C@@H]2C)cc1	?	.
58	COCC(=O)Nc1ccc2c(c1)C(=O)N(C)C[C@@H](OC)[C@@H](C)CN(C)[C@@H](C)CO2	13.0	3.1
59	CO[C@@H]1CN(C)C(=O)c2ccc(NC(C)=O)cc2OC[C@@H](C)N(C(=O)C2CCC2)C[C@@H]1C	8.7	0.8
60	Cc1noc(C)c1NC(=O)Nc1cccc2c1O[C@H](CN(C)C(=O)Nc1ccccc1)[C@@H](C)CN([C@H](C)CO)C2=O	44.0	28.2
61	CN(C)C(=O)c1ccc(-c2ccccc2[C@@H]2[C@@H](C#N)N(C(=O)C3CCCC3)[C@@H]2CO)cc1	1.0	1.9
62	C[C@H](CO)N1C[C@H](C)[C@@H](CN(C)C)OCCCC[C@H](C)Oc2ccc(NS(=O)(=O)c3ccc(Cl)cc3)cc2C1=O	14.5	8.2
63	CC(=O)N1[C@@H]2Cn3c(ccc(/C=C/c4ccccc4)c3=O)[C@H]1[C@@H](C(=O)N(C)C)[C@@H]2CO	-8.0	1.4
64	CCNC(=O)[C@H]1[C@H](CO)[C@H]2Cn3c(ccc(C4=CCCC4)c3=O)[C@H]2N1CC1CC1	16.7	10.8
65	C[C@@H]1CCCCO[C@H](CN(C)Cc2ccc(C(=O)O)cc2)[C@@H](C)CN([C@H](C)CO)C(=O)c2cc(N(C)C)ccc2O1	-3.7&12.3	-2.3&-1.6
66	OC[C@@H]1[C@H](c2ccc(C#Cc3ccccc3F)cc2)[C@H]2CN(CC3CCOCC3)CCCCN12	?	.
67	COc1cccc(C(=O)Nc2ccc3c(c2)C(=O)N(C)C[C@@H](OC)[C@@H](C)CN(CC2CC2)[C@H](C)CO3)c1	2.7	-1.5
68	COc1ccc(S(=O)(=O)Nc2ccc3c(c2)CC(=O)N([C@H](C)CO)C[C@@H](C)[C@H](CN(C)S(C)(=O)=O)O3)cc1	11.6	5.2
69	CCCNC(=O)N1C[C@H](O)COC[C@H]2O[C@@H](CC(=O)N3CCOCC3)CC[C@@H]21	11.3	7.2
70	COc1cccc(-c2ccc([C@H]3[C@H]4CN(S(=O)(=O)c5cccs5)CCCCN4[C@H]3CO)cc2)c1	7.3	3.1
71	C[C@H]1CN([C@@H](C)CO)C(=O)Cc2cc(NC(=O)Nc3ccc4c(c3)OCO4)ccc2O[C@@H]1CN(C)CC1CCCCC1	?	.
72	Cc1ccc(S(=O)(=O)N(C)C[C@@H]2OCCCC[C@H](C)Oc3ccc(NC(=O)Nc4cccc5ccccc45)cc3C(=O)N([C@H](C)CO)C[C@H]2C)cc1	2.9	1.7
73	CCCC#Cc1cnc2c(c1)C(=O)N([C@H](C)CO)C[C@H](C)[C@H](CN(C)C(=O)Nc1ccc(OC)cc1)O2	17.7	6.1
74	COC(=O)C[C@H]1C[C@@H]2c3cc(NC(=O)C4CCC4)ccc3O[C@@H]2[C@H](CO)O1	14.5	8.6
75	CC(C)NC(=O)Nc1ccc2c(c1)CC(=O)N([C@@H](C)CO)C[C@@H](C)[C@H](CN(C)S(=O)(=O)c1ccc(F)cc1)O2	0.5	1.6
76	O=C(CN1CCOCC1)NCC[C@H]1CC[C@@H](NC(=O)c2ccc3c(c2)OCO3)[C@@H](CO)O1	7.3	6.1
77	C[C@@H]1CN([C@@H](C)CO)S(=O)(=O)c2ccc(C#CCN(C)C)cc2O[C@@H]1CN(C)C	12.0	9.0
78	O=C(Nc1cccc(Cl)c1)N[C@@H]1CC[C@H](CCNC(=O)C2CC2)O[C@@H]1CO	-0.8	-2.0

Compound profiles (already shown):
Listed for `CO[C@@H]1CN(C)C(=O)c2ccc(NC(C)=O)cc2OC[C@@H](C)N(C(=O)C2CCC2)C[C@@H]1C` : Vaccinia inh = 8.7; Vaccinia inh Venus = 0.8
Listed for `COCC(=O)Nc1ccc2c(c1)C(=O)N(C)C[C@@H](OC)[C@@H](C)CN(C)[C@@H](C)CO2` : Vaccinia inh = 13.0; Vaccinia inh Venus = 3.1
Listed for `COC(=O)C[C@H]1C[C@@H]2c3cc(NC(=O)C4CCC4)ccc3O[C@@H]2[C@H](CO)O1` : Vaccinia inh = 14.5; Vaccinia inh Venus = 8.6
